Screening data deposited in PubChem BioAssay by National Center for Advancing Translational Sciences (NCATS).
StopGo reporter: FMDV 2A StopGo reporter, luciferase signal. 1.2% of 410,000 active. human cells with a luciferase reporter of 2A StopGo recoding; control for the full effect not named in the record. Potency, µM (top dose mostly 57.9 µM), inactives show at the highest dose signal change, negative = less light; active = well fitted falling curve with a large enough effect; inconclusive = small, poorly fitted or top-dose-only effect; inactive = no such curve, though single readings can be large or run the other way; tested in HEK293T cells; further: on the % scale 0 is the no-effect control and ±100 the full control effect; nearly all actives have a fitted effect of over 45% in size; luciferase light after 4 h
NS1 inh: blocks influenza NS1 protein function; AID 2326; 0.4% of 270,000 active; Potency, µM (doses to about 46.1 µM), inactives show at the highest dose activity, positive = more growth; S. cerevisiae slowed by influenza A NS1, growth recovery by OD600; further: actives are rising curves; nearly all actives have a fitted effect of over 50% in size
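OD600 was taken as the measure of yeast growth restored by compound in an NS1-expressing S. cerevisiae strain. Cells had been washed out of glucose medium and diluted 1:100 into galactose -URA medium, pH 6.0.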
Marburg entry inh: blocks Marburg virus binding to or entry into cells | Marburg virus pseudotyped entry inhibition, cell reporter; control for the full effect not named in the record; about a third of the inactives were read at about 46 µM | Potency, µM (highest dose often 37.8 µM), for the others: at the highest dose activity change, negative = inhibition, actives largely listed as inhibitors | 1.8% of 300,000 active; active = well fitted inhibition curve with a large enough effect; inconclusive = small, poorly fitted or top-dose-only effect, or effect the other way; inactive = flat fitted curve, though single readings scatter; tested in HEK293 cells; about a fifth of its hits are not listed in these tables; further: on the % scale 0 is the no-effect control and ±100 the full control effect; luciferase read-out
Cruzain noTriton: blocks cruzain activity in detergent-free assay; P25779; purified cruzain, Z-FR-AMC fluorescence, no detergent; Potency, µM, inactives show max response, negative = inhibition, actives largely listed as inhibitors; 2.3% of 200,000 active; active means well fitted curve in the direction sought with a large enough effect; inconclusive means small, poorly fitted or top-dose-only effect, or another doubt; inactive means no such curve, though single readings can be large; an effect the other way counts as inactive or inconclusive;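 further: plate controls were enzyme without inhibitor for no effect and buffer without enzyme for full effect; nearly all actives have a fitted effect of over 40% in size; top concentration of the series not given in the record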
Target sequence (P25779 123-467 limits assumed): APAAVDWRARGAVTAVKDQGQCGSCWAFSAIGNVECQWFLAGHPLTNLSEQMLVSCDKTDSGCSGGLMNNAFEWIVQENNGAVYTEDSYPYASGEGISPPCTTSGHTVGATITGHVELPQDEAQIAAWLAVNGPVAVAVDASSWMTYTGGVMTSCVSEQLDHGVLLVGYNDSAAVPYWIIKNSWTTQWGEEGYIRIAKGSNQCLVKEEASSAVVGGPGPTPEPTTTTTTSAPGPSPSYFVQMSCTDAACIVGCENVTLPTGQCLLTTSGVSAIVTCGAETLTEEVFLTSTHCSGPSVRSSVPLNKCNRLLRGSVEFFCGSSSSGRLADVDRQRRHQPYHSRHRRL
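Detergent-free condition (0.00005% Triton X-100) in acetate buffer pH 5.5 with DTT. 1.5 nM enzyme and compound were pre-mixed 15 min, then 2 uM Z-FR-AMC substrate added; reaction progress from fluorescence change between first and third reads (60 s).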
SARS PLP yeast: SARS-CoV PLP inhibition in yeast; S. cerevisiae expressing SARS-CoV PLpro, growth rescue; control for the full effect not named in the record; Potency, µM (doses to about 32.9 µM), for the others: at the highest dose activity, positive = growth rescue; 0.19% of 330,000 active; further: 0% is about no effect; nearly all actives have a fitted effect of over 55% in size; growth read by luminescence after 48 h
RE007 growth inh: less growth of the S. pombe RE007 Vpr strain. S. pombe RE007 Vpr strain, BacTiter-Glo ATP luminescence, 24 h; control for the full effect not named in the record. Potency, µM (top dose mostly 92.2 µM), for inactives: at the highest dose activity change, negative = less growth. 0.21% of 360,000 active. AID 651644; active = well fitted falling curve with a large enough effect; inconclusive = small, poorly fitted or top-dose-only effect; inactive = no such curve, though single readings can be large or run the other way;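 further: on the % scale 0 is the no-effect control and ±100 the full control effect; nearly all actives have a fitted effect of over 50% in size; the assay follows cell death caused by Vpr and the record does not say whether a fall means rescue or toxicity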
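Fission yeast RE007 carrying one integrated HIV-1 vpr copy, seeded at OD 0.01 in PMG+AL medium with 23 nL pinned compound. Grown 24 h at 30 degrees; viability read by BacTiter-Glo luminescence after 5 min.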
Cruzain inh Det: cruzain (T. cruzi) inhibition with detergent; purified cruzain, Z-FR-AMC fluorescence, 0.01% Triton; Potency, µM, for the others: max response, negative = inhibition, usual class: inhibitors; 0.43% of 200,000 active; active means well fitted curve in the direction sought with a large enough effect; inconclusive means small, poorly fitted or top-dose-only effect, or another doubt; inactive means no such curve, though single readings can be large; an effect the other way counts as inactive or inconclusive;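 further: plate controls were neutral wells for no effect and buffer without enzyme for full effect; nearly all actives have a fitted effect of over 40% in size; top concentration of the series not given in the record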
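Sodium acetate buffer (100 mM, pH 5.5) containing 5 mM DTT and 0.01% Triton X-100 hosted 1.5 nM cruzain and test compound for 15 min at room temperature. Cleavage of 2 uM Z-FR-AMC was then tracked by fluorescence.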
Lassa entry inh: inhibitors of Lassa virus binding or cell entry; Lassa virus pseudotype entry inhibition, cell reporter; control for the full effect not named in the record; Potency, µM (doses to about 37.9 µM), without a hit: at the top dose activity change, negative = inhibition, usual class: inhibitors; 1.2% of 300,000 active; AID 540256; active means well fitted inhibition curve with a large enough effect; inconclusive means small, poorly fitted or top-dose-only effect, or effect the other way; inactive means flat fitted curve, though single readings scatter; tested in HEK293 cells; further: on the % scale 0 is the no-effect control and ±100 the full control effect; nearly all actives have a fitted effect of over 50% in size; luciferase read-out
* marks the source's active call; other numbers are inactive results; ? = inconclusive; . = not tested or not shown; & = joins results of further samples; [ ] = dose if it differs, or a comment. Unless noted, the call rests on the fitted dose curve; in most records, active means well fitted rising curve with a large enough effect; inconclusive means small, poorly fitted or top-dose-only effect; inactive means no such curve, though single readings can be large or run the other way. Potency means the concentration at half of the fitted maximal effect.

SMILES | StopGo reporter | NS1 inh | Marburg entry inh | Cruzain noTriton | SARS PLP yeast | RE007 growth inh | Cruzain inh Det | Lassa entry inh
CCOc1ccc(C(=O)Nc2cc(NC(=O)c3ccc(OCC)c(Cl)c3)cc(C(=O)O)c2)cc1Cl | -3.6% | 1.7% | 9.3%[46.1 µM] | . | 0.4% | 23.0% | . | -4.5%[46.1 µM]
CCN1/C(=C\C=C2\C(=O)N(C)C(=S)N2C)Sc2ccccc21 | 6.9% | . | 31.1%[46.1 µM] | . | -3.6% | 16.7% | . | 15.3%
CCN1C(=O)/C(=C\N(C)C)S/C1=N\S(=O)(=O)c1ccccc1 | 0.4% | . | 7.6%[46.1 µM] | . | 0.4% | 27.3% | . | 2.9%
Cc1nnc(N2CCC(C(=O)Nc3ccc(F)cc3)CC2)c2nn(-c3ccc(Cl)cc3)c(C)c12 | ? | . | . | 4.8% | . | . | -7.1% | ?
CCc1cc(=S)n2c([nH]c3ccccc32)c1C#N | ? | . | ? | . | -10.9% | -5.7% | . | ?
COc1ccccc1CNC(=O)c1cnn2c(C(F)F)cc(C)nc12 | -0.6% | -15.8% | ? | -7.7% | -8.4% | 26.5% | -2.0% | -14.8%
COc1ccsc1NC(=O)OCc1ccc(Cl)cc1 | 29.6% | -0.2% | . | . | -5.9% | -6.0% | . | .
O=C(NN1C(=O)C2C(C1=O)C1C=CC2C12CC2)c1ccncc1 (stereo not given) | -7.3% | -0.9% | -35.7%[46.1 µM] | 8.2% | 12.8% | -9.8% | 8.9% | -5.8%
COC(=O)CSc1nc2sc3c(c2c(=O)n1-c1ccc(OC)cc1)CCN(C)C3 | -12.6% | 2.1% | 8.1%[46.1 µM] | . | 0.7% | -10.9% | . | 22.6%[46.1 µM]
CC(OC(=O)c1cc[n+]([O-])cc1)C(=O)NCc1ccccc1 (stereo not given) | -4.6% | . | ? | . | . | 1.1% | . | 2.2%
Cc1ccc([N+](=O)[O-])cc1NC(=O)CNC1CCCCC1 | 1.5% | 18.2% | -12.5% | . | -1.7% | -12.1% | . | 9.2%
CC(C)c1ccc(/C=N/n2cnnc2)cc1 | 8.7% | -47.4% | 6.0%[46.1 µM] | . | 3.0% | -10.7% | . | 10.8%[46.1 µM]
CCS(=O)(=O)N1CCCC(C(=O)NC2CCCC2)C1 (stereo not given) | -6.3% | -2.8% | 15.8% | -1.4% | -0.1% | -16.9% | 2.3% | -17.5%
Cc1cccc(CCNC(=O)c2cc(=O)[nH]c3ccc(Br)cc23)c1 | . | -3.6% | . | 0.4% | -7.9% | . | -0.8% | .
COCCNC(=O)C1CC(c2cccc(F)c2)=NO1 (stereo not given) | -13.5% | -0.3% | . | . | 1.5% | 1.5% | . | .
O=S(=O)(Nc1c(F)cccc1F)c1ccc2c(c1)OCCO2 | 28.0%&75.5% | -9.1% | -17.0%&10.4%[46.1 µM] | 4.0% | 0.4% | 6.9% | -1.8% | -2.4%
CCn1cc(CN2CCC(C(=O)Nc3cccc(-c4cscn4)c3)CC2)cn1 | -9.4% | -1.6% | -1.0% | . | -2.7% | 6.9% | . | 15.4%
O=C(NCc1cccs1)C(Cc1ccccc1)NS(=O)(=O)c1cccs1 (stereo not given) | 13.6% | -7.4% | -25.3% | -8.4% | 9.1% | -10.4% | -2.0% | -26.5%
O=C(Nc1ccc(N2CCOCC2)cc1N1CCOCC1)c1cccs1 | 8.1% | 1.6% | 6.8% | -4.4% | 1.8% | 7.5% | 3.3% | -3.9%
CCOC(=O)c1[nH]c2ccc(OC)cc2c1NC(=O)c1ccc(OC)c(OC)c1 | -11.1% | -1.3% | -21.5% | ? | -5.9% | 0.2% | -7.3% | 0.5%
Nc1nc(SCC(=O)NCC2CCCO2)n[nH]1 (stereo not given) | 8.9% | -2.6% | 7.5% | 1.3% | -0.2% | 1.7% | 5.3% | 26.6%
O=C(NCc1ccccc1C(F)(F)F)C1CC(c2cc(C(F)(F)F)cc(C(F)(F)F)c2)=NO1 (stereo not given) | ? | -9.1% | -7.2% | . | 0.4% | 4.6% | . | .
CCCC1(CCC)NC(=O)N(CC(=O)N2CCN(C(=O)c3ccco3)CC2)C1=O | -23.7% | 14.0% | -18.0%[46.1 µM] | -10.8% | 10.0% | -3.8% | 2.4% | -3.7%
O=C1/C(=C/c2ccncc2)SC(=S)N1C1CCCCC1 | -26.6% | 8.4% | ? | -5.1% | 0.8% | 0.9% | -2.6% | -0.1%
Cc1cccc(Nc2nc(N3CCOCC3)nc(N3CCOCC3)n2)c1 | -14.3% | -23.7% | ? | . | -12.2% | 8.8% | . | ?
O=C(O)c1cc(-c2c[nH]c3ccccc23)nc2ccc3ccccc3c12 | 17.3% | . | -4.9%[46.1 µM] | . | 0.3% | 14.2% | . | -17.6%
Cc1cccc(NC(=O)CSc2nc3[nH]ncc3c(=O)n2-c2ccccc2)c1 | . | ? | -29.6% | 3.0% | 6.0% | . | -4.5% | -15.3%
COC(C(=O)NNS(=O)(=O)c1ccccc1[N+](=O)[O-])c1ccccc1 (stereo not given) | -17.9% | 5.5% | . | . | 0.5% | 15.2% | . | .
COCCSc1nnc(NC(=O)Cc2ccc(OC)cc2)s1 | -6.7% | 1.2% | -12.0% | . | 0.8% | 7.6% | . | ?
c1ccc(N2CCN(C3CCSC3)CC2)cc1 (stereo not given) | -7.4% | -2.0% | 13.5% | -3.0% | 12.8% | -6.5% | 3.8% | 1.2%
COc1ccc(-c2nc3cccc(C)n3c2NCC2CCCO2)cc1O (stereo not given) | -15.9% | -1.7% | -24.8%[46.1 µM] | . | -0.6% | 0.3% | . | 12.9%
CCOc1ccc(S(=O)(=O)Nc2cccc(C(=O)N3CC(C)OC(C)C3)c2)cc1 (stereo not given) | 34.5%[activator] | . | -11.4% | . | -2.7% | 6.9% | . | 4.7%
O=S(=O)(Cc1ccccc1)N1CCN(C/C=C/c2ccccc2)CC1 | 2.8% | 1.4% | -5.9% | -3.8% | 4.0% | -9.4% | 2.2% | 1.4%
CCCC(=O)N(CCN1CCOCC1)c1nc2ccc(OCC)cc2s1 | 1.6% | -18.7% | 3.9%[46.1 µM] | . | 1.3% | -10.3% | . | 9.8%[46.1 µM]
CCCN(CC(=O)Nc1ccccc1Br)CC(=O)Nc1ccc(F)c(F)c1F | -15.7% | -20.3% | ? | 4.2% | -40.4% | 3.0% | -12.3% | -13.4%
CCOC(=O)c1nn(-c2ccccc2)c(=O)cc1OCC(=O)Nc1ccccc1OCC | -15.4% | . | 11.1% | . | 2.6% | -9.7% | . | 6.1%
CC(C)c1ccc(S(=O)(=O)Nc2ccc(O)c(Sc3nc4ccccc4s3)c2)cc1 | 12.1% | . | -21.3%[46.1 µM] | 0.4% | . | . | -5.8% | ?
O=C(NCc1ccccn1)C(=O)N/N=C/c1ccccc1O | 14.2% | -7.3% | -4.3% | . | -1.5% | -9.7% | . | ?
CC(=O)c1cn(CC(=O)NCc2cccnc2)c2ccccc12 | . | -3.5% | -0.1% | 1.5% | 2.4% | -11.5% | -2.8% | -8.5%
Cc1ccc2c(CC(=O)NC3=NCCS3)coc2c1 | 39.1%[activator] | -14.1% | 4.4%[46.1 µM] | 1.7% | -10.2% | -2.8% | -0.5% | -24.7%
COCCOC(=O)c1c(NC(=O)CNCc2ccco2)sc(C(N)=O)c1C | 12.7% | . | 18.0%[46.1 µM] | . | 0.2% | -6.5% | . | 9.0%[46.1 µM]
CC(=O)c1ccc(OCC(O)CN2CCOCC2)cc1 (stereo not given) | -8.4% | -0.5% | . | 1.6% | -1.7% | -2.5% | 1.3% | .
Nc1ncc([N+](=O)[O-])cc1Br | -14.2% | -5.0% | . | . | 0.4% | -5.0% | . | .
COc1ccc(/C=C(\CC(=O)O)c2nc3ccccc3s2)cc1O | 53.9%[activator] | . | 18.0%[46.1 µM] | . | -4.6% | 1.4% | . | -6.2%
COC(=O)c1ccc(N2CCN(CCNC(=O)Nc3ccc(OC)cc3)CC2)cc1 | -10.1% | 13.3% | . | . | ? | -12.5% | . | .
CC(=O)NC1=NN(C(C)=O)C(C)(CC(=O)OC(C)(C)C)S1 (stereo not given) | -9.7% | 0.2% | 24.9%[46.1 µM] | . | 0.2% | 62.9% | . | 0.4%
O=C(CCC(=O)OCC(=O)c1ccc(Br)cc1)Nc1cccc2cccnc12 | -20.8% | -2.9% | ? | 4.6% | 7.3% | 2.9% | -1.9% | -23.5%
O=[N+]([O-])c1c(NCc2ccco2)ncnc1NCc1ccco1 | 1.9% | . | 0.6%[46.1 µM] | . | . | 0.4% | . | 0.1%[46.1 µM]
COc1ccc(/C=C(\NC(=O)c2ccc(OC)cc2)C(=O)Nc2cccc(C(=O)O)c2)cc1 | -1.6% | ? | 3.1%[46.1 µM] | . | 0.0% | 10.1% | . | 21.1%[46.1 µM]
CCCCOc1ccc([N+](=O)[O-])cc1C(=O)O | 33.8%[activator] | . | 1.2% | . | 1.0% | -13.8% | . | 6.1%[46.1 µM]
COC(=O)c1ccc(NC(=O)c2ccccc2)o1 | -4.2% | -1.1% | ? | 2.0% | -11.4% | 0.2% | 1.5% | -14.7%
CC1(C)Cc2c(c(-c3ccccc3)nc3[nH][nH]c(=O)c23)CO1 | -24.6% | -0.6%[9.22 µM] | 13.9% | -2.8% | 1.2% | 2.4% | 1.4% | 6.1%
COc1ccc(OC)c(C2=NOC(C(=O)NCCN3CCOCC3)C2)c1 (stereo not given) | 5.9% | -2.0% | 1.4% | -2.6% | -3.2% | 6.9% | 0.0% | 10.8%
COc1ccc(CC(=O)NNc2ncnc3c2cnn3C)cc1 | 0.0% | ? | -8.4% | ? | -4.0% | -2.0% | 2.2% | ?
N#C/C(=C\c1cccc(OCC(=O)O)c1)c1nc2ccccc2[nH]1 | 9.9% | 6.2% | . | . | 3.0% | -2.7% | . | .
